Screens deposited in PubChem by several laboratories.
Mtb betalactam – beta-lactam sensitization of Mtb H37Rv. M. tuberculosis H37Rv growth with meropenem, percent inhibition; hits of this screen are not shown here. inhibition, % at 25 µM. hit rate 0.27% among 330,000. AID 434955;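 active = about 74% or more and at least 40 points above the plate without the antibiotic, then above 30% in a dose series; inconclusive = first-round hits that could not be retested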;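 note: growth measured after seven days incubation then overnight dye step; 0% = bacteria only wells and 100% = bacteria with antibiotic; twin plates without the antibiotic show which effects depend on it; some results filed as inactive read as strong as hits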
Arbovirus inh – arbovirus infection inhibition; arbovirus infection cell-based antiviral screen; inhibition, % at 10 µM; hit rate 0.37% among 200,000; AID 1251;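 active = inhibition from about 30%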;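 note: bluetongue infection of BSR cells; cell survival read as ATP light after 72 h; 0% = infected wells without compound and 100% = uninfected wells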
RecA intein inh – blocks M. tuberculosis RecA intein splicing; cell-free RecA intein splicing, fluorescence; inhibition, %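 (about 9 µM by stock and volumes)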; hit rate 0.75% among 290,000; AID 2221; in the data active = inhibition above about 30%; inconclusive = no clear call, values can overlap the other calls;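 note: 0% = vehicle wells and 100% = reference inhibitor control wells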
Target sequence (P9WHJ3 whole entry, looked up): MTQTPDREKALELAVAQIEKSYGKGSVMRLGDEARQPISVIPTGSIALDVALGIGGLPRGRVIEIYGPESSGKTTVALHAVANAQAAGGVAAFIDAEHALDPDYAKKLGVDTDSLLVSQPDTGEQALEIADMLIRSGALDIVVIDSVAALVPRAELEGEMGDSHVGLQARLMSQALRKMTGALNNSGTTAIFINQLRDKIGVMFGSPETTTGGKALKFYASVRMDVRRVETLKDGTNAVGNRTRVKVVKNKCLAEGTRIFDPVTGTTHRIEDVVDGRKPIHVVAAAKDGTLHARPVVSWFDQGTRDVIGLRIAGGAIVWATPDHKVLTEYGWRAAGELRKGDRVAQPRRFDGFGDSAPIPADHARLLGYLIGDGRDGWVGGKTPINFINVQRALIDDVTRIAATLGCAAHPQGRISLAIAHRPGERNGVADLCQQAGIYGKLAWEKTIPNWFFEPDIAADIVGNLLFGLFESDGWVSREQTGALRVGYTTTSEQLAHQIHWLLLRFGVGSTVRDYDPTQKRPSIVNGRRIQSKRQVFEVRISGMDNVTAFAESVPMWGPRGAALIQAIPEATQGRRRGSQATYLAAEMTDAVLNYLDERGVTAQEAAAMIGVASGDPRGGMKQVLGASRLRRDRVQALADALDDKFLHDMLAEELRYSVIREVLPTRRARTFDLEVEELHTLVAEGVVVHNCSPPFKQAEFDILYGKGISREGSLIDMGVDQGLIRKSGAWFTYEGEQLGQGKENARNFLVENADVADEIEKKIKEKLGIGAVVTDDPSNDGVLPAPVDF
YopH inh – blocks Yersinia enterocolitica YopH tyrosine phosphatase; hit rate 0.16% among 140,000; inhibition, %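 (about 10 µM by stock and volumes)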; fluorescence Ex485/Em525;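 active = inhibition of 50% or more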;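 note: controls were vehicle for no effect and minimum signal wells for full effect; inactives centre near -20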
Mtb growth – M. tuberculosis H37Rv growth inhibitors, H37Rv strain (AID 1626); M. tuberculosis H37Rv growth inhibition; higher % means a stronger effect; inhibition, % at 10 µM, or IC50 in µM where a hit was titrated; hit rate 0.95% among 220,000;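 active = confirmed in a dose series; inconclusive = inhibition above 80% but not taken into the dose series; inactive = below 80% or under 30% at every dose of the series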;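 note: bacteria incubated seven days before Alamar blue readout; 0% = bacteria only wells and 100% = bacteria with antibiotic wells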
Arbovirus inh repeat – recorded beside Arbovirus inh, whose call it bears; inhibition, %; measured here: 10K subset replicate screen; many hits read low in the repeat;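 first of two repeat runs on a subset; 0% = infected and 100% = uninfected wells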
Starred values were filed as active, the others as inactive; u = inconclusive; x = no result given.

SMILES | Mtb betalactam | Arbovirus inh | RecA intein inh | YopH inh | Mtb growth | others
CC1=Nc2ccc(Br)cc2C(c2ccccc2)N1CC(=O)O (centres undefined) | 8 | 5 | 2.2 | x | 1%
Cc1nc(Sc2ccccc2)c(C#N)c(C)c1[N+](=O)[O-] | -1 | x | x | x | -3%
CNC(=O)c1cc2cccc(OC)c2oc1=O | -12 | 1 | -2.6 | -13 | -10%
COc1ccc(-c2noc(CCC(=O)Nc3cccnc3)n2)cc1OC | -8 | 6 | 0.7 | -29 | 2%
CCOc1ccc(N(CC(=O)NCc2ccccc2)S(=O)(=O)c2c(C)noc2C)cc1 | 3 | -1 | x | -50 | -4% | Arbovirus inh repeat=-2
O=C(CSc1nnc(NC(=O)c2ccccc2)s1)NCc1ccco1 | -12 | x | 0.8 | x | x
COCCn1cnc2c1c(=O)n(CC(=O)NCC(F)(F)F)c(=O)n2Cc1ccccc1 | -3 | x | -0.7 | x | x
COc1ccc(C(=O)Nn2c(C)ccc2C)cc1OC | -2 | -3 | 1.7 | -15 | -13%
CC(=O)Oc1ccc(N2C(=O)C3C(C2=O)C(C(=O)c2ccc(Cl)cc2)N2CCCC32)cc1 (centres undefined) | 2 | x | 9.6 | x | -5%
Cc1ccc(C(C)NC(=O)c2c(C)noc2C)cc1C (centres undefined) | -19 | -1 | 0.4 | -24 | -1%
O=C(Cc1cccs1)Nc1cccc(-c2nnc(-c3ccco3)o2)c1 | -4 | -1 | -1.0 | x | 7%
CCn1c(Cc2ccccc2)nnc1SCC(=O)c1cccc([N+](=O)[O-])c1 | -9 | 6 | 1.2 | -30 | -1%
Cc1nn(Cc2ccc(Cl)cc2Cl)c(C)c1NC(=O)NC12CC3CC(CC(C3)C1)C2 | -3 | -27 | 4.1 | -21 | 18%
CC(C)C(=O)Nc1cc2c3c(c1)CCN3C(=O)CC2 | 1 | x | 1.8 | x | x
COC(=O)C(C)(C(=O)OC)c1ccccc1[N+](=O)[O-] | -2 | 3 | 0.8 | -42 | 6%
Cc1c(Cl)c([N+](=O)[O-])nn1CCCC(=O)Nc1sc2c(c1C(N)=O)CCC(C)C2 (centres undefined) | -4 | 3 | -2.7 | -5 | 3%
CCOc1ccc(CN2C(=O)c3ccccc3C2C(=O)NCc2cccnc2)cc1 (centres undefined) | -8 | 0 | 1.2 | 11 | -5%
COc1ccc(-n2cc(C(=O)O)c(=O)cc2C)cc1 | -7 | 1 | -0.8 | x | x
C/C(=N/O)c1ccccn1 | -3 | 0 | -1.0 | x | -1% | Arbovirus inh repeat=5
CC(C)c1ccc(CNC(=O)C2CCCN2S(=O)(=O)c2ccccc2)cc1 (centres undefined) | -5 | x | 3.2 | x | x
O=C1Nc2ccccc2C(O)(C(=O)NCc2ccco2)N1c1ccc(Cl)c(Cl)c1 (centres undefined) | -7 | 25 | -0.3 | -31 | 0%
N#CN=C(c1ccccc1)c1ccccc1 | -8 | x | -0.1 | x | x
COc1ccc2c(c1)CCCC21NC(=O)NC1=O (centres undefined) | -5 | 6 | 0.4 | -39 | -1%
CC(C)NC(=O)c1sc2nc(-c3cccs3)cc(-c3cccs3)c2c1N | 6 | 3 | -16 | -19 | 7%
CCCc1c(C)c2ccccc2[nH]c1=O | -4 | 6 | -0.2 | 10 | -2%

The results go on:
SMILES | Mtb betalactam | Arbovirus inh | RecA intein inh | YopH inh | Mtb growth | others
CCC(C)NC(=O)CNC(=O)c1nn(-c2ccc(OC)c(Cl)c2)c(=O)c2ccccc12 (centres undefined) | -10 | x | 0.5 | x | x
Nn1c(C2CCC2)nc2cc(Cl)ccc2c1=O | 0 | x | -3.7 | x | x
Cc1c(-c2ccccc2)nc(-c2ccccc2)[nH]c1=O | 0 | 7 | -1.5 | 0 | -2%
Cc1cc(C(=O)OCC(=O)N2c3ccccc3CC2C)c(C)o1 (centres undefined) | -6 | -3 | 1.9 | -24 | 8%
COCN(C#N)c1nc(N(C)C)nc(N(C)C)n1 | -8 | 7 | -1.8 | x | -4%
CC(C)(C)C(=O)COC(=O)c1ccc2c(c1)C(=O)N(Cc1ccco1)C2=O | 87 | x | -1.8 | x | x
CCOc1cccc2cc(-c3csc(NC(=O)CCC(=O)NCCCN4CCC(C)CC4)n3)c(=O)oc12 | -4 | -26 | -1.9 | x | -5%
COC(=O)CNc1nc(Cl)nc(Nc2ccc(C)cc2)n1 | 1 | 1 | 3.2 | x | 5%
COC(=O)C1=C(CS(=O)(=O)c2ccc(Cl)cc2)NC(=O)NC1c1ccc(O)cc1 (centres undefined) | 2 | x | 0.1 | x | x
Cc1cccc(OCCOC(=O)CN2C(=O)NC3(CCCC3)C2=O)c1 | -7 | x | -6.0 | x | x
CC(CCc1ccccc1)NC(=O)/C=C/c1ccc(F)cc1 (centres undefined) | 4 | 12 | 1.8 | x | 4%
COc1ccc(-n2cc(CN(C)C3CCOCC3)c(-c3cccc(F)c3)n2)cc1 | 5 | -2 | -1.4 | x | 9%
CCOC(=O)c1[nH]cnc1C(=O)Nc1ccccc1C | -2 | 2 | -0.5 | x | 7%
COc1cccc(CN2CCN(S(=O)(=O)c3ccccc3)CC2)c1OC | -13 | x | -0.4 | x | x
COc1cc(NC(=O)C2CC(=O)N(CCc3ccc(F)cc3)C2)cc(OC)c1OC (centres undefined) | -3 | x | 0.1 | x | x
Cc1cc(C(=O)COC(=O)C2=NNC(=O)CC2)c(C)n1-c1ccc(OC(F)F)cc1 | 15 | 1 | 1.3 | -10 | -2%
O=C(c1cc2cc(Cl)ccc2oc1=O)N1CCCC1 | -6 | 2 | x | -28 | -5%
FC(F)(F)c1ccc(C2[C@H]3CN(Cc4ccc(-c5ccccc5)cc4)[C@H](c4ccccc4)C34CC2(c2cccnc2)C4)cc1 (some centres undefined) | -6 | x | 2.8 | x | 3%
O=C(Cc1ccsc1)Nc1ccc(Cl)cc1Cl | 4 | x | 1.9 | x | x
CCn1nc(C)c([N+](=O)[O-])c1C(=O)NNC(=O)c1ccc(Cl)cc1 | -8 | x | 0.0 | x | 3%
NC(=O)c1c(NC(=O)CSc2nnc(Cc3ccccc3)n2Cc2ccco2)sc2c1CCC2 | 94 | -4 | -1.0 | -39 | 0%
COc1cc2[nH]c(=O)n(CCCC(=O)N3CC=C(c4ccccc4)CC3)c(=O)c2cc1OC | u | 12 | -0.3 | -41 | -3% | Arbovirus inh repeat=6
CCn1c(SCC(=O)Nc2ccc3c(c2)n(C)c(=O)n3C)nnc1-c1ccncc1 | -2 | x | 0.0 | x | x
Oc1ccc(C[C@@H]2CNCCN2CC2(c3ccccc3)CC2)cc1 | 1 | x | -1.2 | x | x
COC(=O)/C(=C\c1c[nH]c2ccccc12)NC(C)=O | 6 | -1 | 0.3 | -24 | 0%

(further entries)
SMILES | Mtb betalactam | Arbovirus inh | RecA intein inh | YopH inh | Mtb growth | others
CC(=O)NC(CCS(C)(=O)=O)C(=O)Nc1c(F)cccc1F (centres undefined) | 0 | 3 | 1.3 | -39 | x
CCCc1cc(NCCCO)n2c(nc3ccccc32)c1C#N | -9 | x | -64 | x | -9%
O=S(=O)(Oc1ccc(C(=S)N2CCOCC2)cc1)c1ccc(Cl)cc1 | 1 | x | 0.9 | x | x
COc1ccc(-c2cc(C)no2)cc1S(=O)(=O)NCCCN1CCCCCC1 | -2 | x | -3.7 | x | x
COc1ccc(CCNC(=O)CSc2nc(O)c(C(C)C)c(=O)[nH]2)cc1OC | 7 | 6 | 7.3 | -26 | 0%
CCN(C(=O)COC(=O)c1ccc(OC)c(S(=O)(=O)N2CCCc3ccccc32)c1)C1CCS(=O)(=O)C1 (centres undefined) | 0 | 1 | 0.9 | x | 5%
Cc1ccoc1C(=O)N1CCCCC1C(=O)O (centres undefined) | -3 | 9 | -4.3 | x | 3%
COc1ccc(/C(O)=C2\C(=O)C(=O)N(CCN(C)C)C2c2cc(OC)c(OC)c(OC)c2)c(C)c1 (centres undefined) | -3 | 3 | -1.1 | -22 | -8%
Fc1cccc(-n2c(-c3ccco3)nc3nc4ccccc4nc32)c1 | -12 | 13 | -1.3 | -26 | 1%
CCC(=O)Nc1ccc(S(=O)(=O)Nc2cccc(C)c2)cc1OC | 12 | -8 | -0.9 | 38 | 0%
CC(Oc1ncnc2ccccc12)C(=O)Nc1cccc(S(=O)(=O)N2CCOCC2)c1 (centres undefined) | u | 2 | 0.1 | 16 | 7%
CN(C)c1ccc(C=C2C(=O)NC(=S)NC2=O)cc1[N+](=O)[O-] | -12 | -6 | -8.0 | x | -13%
O=C(Nc1ccccc1)N1CCN(Cc2ccc3c(c2)OCO3)CC1 | -1 | -2 | -1.1 | -42 | -8% | Arbovirus inh repeat=0
COc1cc2c(cc1OC)C(COc1ccc(F)cc1)N(C(=O)c1ccco1)CC2 (centres undefined) | x | -4 | x | -54 | -6%
COc1ccc(OC)c(-n2c(=S)[nH]c3c(sc(=S)n3-c3ccccc3)c2=O)c1 | -6 | 9 | -2.7 | x | -1%
O=C(COC(=O)c1ccc(N2CCCC2=O)cc1)c1ccccc1 | -3 | x | 0.6 | x | x
Cc1cccc(Cn2nnc3ccccc32)c1O | -2 | x | -0.5 | x | x
O=C(Nc1ccccc1C(=O)NCC1CCCO1)c1ccc(Cl)cc1Cl (centres undefined) | 4 | 3 | 2.6 | -21 | 3%
Cc1cc(/C=C2/NC(=O)NC2=O)c(C)n1-c1ccncc1 | 0 | 4 | -2.9 | x | -1%
CCOC(=O)CSc1nnc(CNC(=O)c2ccc(OC)cc2)n1C1CCCCC1 | u | 3 | -4.5 | -32 | -6%
COc1ccc(C(=O)NCCSc2ccccc2)cc1OC | 3 | 1 | 0.3 | x | 1%
COc1ccc(NC(=O)Cn2c(=O)sc3ccccc32)cc1 | 0 | -1 | -2.1 | -1 | -4%
CCOC(=O)C1CCCN(C(=O)c2cc(COc3ccc(C)nc3)on2)C1 (centres undefined) | 4 | x | -1.2 | x | x
CC(C)CNc1nc(NC(C)(C)C)nc(Oc2ccc(=O)[nH]n2)n1 | -1 | -4 | 0.6 | x | 3%
CN=C1SC(CC(=O)Nc2ccccc2F)C(=O)N1C (centres undefined) | -4 | 7 | 1.0 | -36 | -4% | Arbovirus inh repeat=1

Remaining list, next part
SMILES | Mtb betalactam | Arbovirus inh | RecA intein inh | YopH inh | Mtb growth | others
COCCCNC(=O)/C=C/c1ccc(Cl)cc1Cl | -4 | -8 | -1.5 | -36 | -14%
COCCn1c(C)cc(C(=O)CSc2nc3ccccc3o2)c1C | -2 | 7 | 2.5 | -45 | 1%
O=C(CSc1ccc2nnc(-c3ccccn3)n2n1)Nc1ccc2c(c1)OCCO2 | -1 | 1 | 0.1 | -49 | -4%
CC(C)OC(=O)Nc1ccc(-c2ccc(NC(=O)OC(C)C)cc2Cl)c(Cl)c1 | 0 | x | -0.9 | x | -1%
CCCN(CCO)CCCc1ccccc1 | -8 | 0 | 2.7 | -3 | -1%
CN1CC(=O)N(CC(=O)N2CCC(Cc3ccccc3)CC2)C1=O | -2 | -5 | -1.8 | x | -2%

Nothing new here: an excerpt of the list.
SMILES | Mtb betalactam | Arbovirus inh | RecA intein inh | YopH inh | Mtb growth | others
Cc1cc(/C=C2/NC(=O)NC2=O)c(C)n1-c1ccncc1 | 0 | 4 | -2.9 | x | -1%
CCOC(=O)CSc1nnc(CNC(=O)c2ccc(OC)cc2)n1C1CCCCC1 | u | 3 | -4.5 | -32 | -6%
COc1ccc(C(=O)NCCSc2ccccc2)cc1OC | 3 | 1 | 0.3 | x | 1%
COc1ccc(NC(=O)Cn2c(=O)sc3ccccc32)cc1 | 0 | -1 | -2.1 | -1 | -4%
CCOC(=O)C1CCCN(C(=O)c2cc(COc3ccc(C)nc3)on2)C1 (centres undefined) | 4 | x | -1.2 | x | x
CC(C)CNc1nc(NC(C)(C)C)nc(Oc2ccc(=O)[nH]n2)n1 | -1 | -4 | 0.6 | x | 3%
CN=C1SC(CC(=O)Nc2ccccc2F)C(=O)N1C (centres undefined) | -4 | 7 | 1.0 | -36 | -4% | Arbovirus inh repeat=1
COCCCNC(=O)/C=C/c1ccc(Cl)cc1Cl | -4 | -8 | -1.5 | -36 | -14%
COCCn1c(C)cc(C(=O)CSc2nc3ccccc3o2)c1C | -2 | 7 | 2.5 | -45 | 1%
O=C(CSc1ccc2nnc(-c3ccccn3)n2n1)Nc1ccc2c(c1)OCCO2 | -1 | 1 | 0.1 | -49 | -4%
CC(C)OC(=O)Nc1ccc(-c2ccc(NC(=O)OC(C)C)cc2Cl)c(Cl)c1 | 0 | x | -0.9 | x | -1%
CCCN(CCO)CCCc1ccccc1 | -8 | 0 | 2.7 | -3 | -1%
CN1CC(=O)N(CC(=O)N2CCC(Cc3ccccc3)CC2)C1=O | -2 | -5 | -1.8 | x | -2%

These rows are one share of the data, so the mix of outcomes need not match the whole.
